SARS PLP yeast – SARS-CoV PLP inhibition in yeast. S. cerevisiae expressing SARS-CoV PLpro, growth rescue; control for the full effect not named in the record. Potency, µM (top dose mostly 32.9 µM), without a hit: at the top dose activity, positive = growth rescue. 0.19% of 330,000 active; active means well fitted rising curve with a large enough effect; inconclusive means small, poorly fitted or top-dose-only effect; inactive means no such curve, though single readings can be large or run the other way; further: 0% is about no effect; nearly all actives have a fitted effect of over 55% in size; growth read by luminescence after 48 h
RE007 growth inh – less growth of the S. pombe RE007 Vpr strain. S. pombe RE007 Vpr strain, BacTiter-Glo ATP luminescence, 24 h; control for the full effect not named in the record. Potency, µM (doses to about 92.2 µM), for the others: at the highest dose activity change, negative = less growth. 0.21% of 360,000 active; active = well fitted falling curve with a large enough effect; inconclusive = small, poorly fitted or top-dose-only effect; inactive = no such curve, though single readings can be large or run the other way;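 further: on the % scale 0 is the no-effect control and ±100 the full control effect; nearly all actives have a fitted effect of over 50% in size; the assay follows cell death caused by Vpr and the record does not say whether a fall means rescue or toxicity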
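Fission yeast strain RE007, carrying one chromosomally integrated HIV-1 vpr copy, was seeded at OD 0.01 in PMG+AL medium with 23 nL pinned compound. After 24 h at 30 °C and 99% humidity, viability was read by BacTiter-Glo luminescence.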
Cruzain inh noDet – cruzain (T. cruzi) inhibition without detergent; 2.3% of 200,000 active; AID 1476; Potency, µM, for the others: max response, negative = inhibition, usual class: inhibitors; purified cruzain, Z-FR-AMC fluorescence, no detergent; P25779;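 further: plate controls were enzyme without inhibitor for no effect and buffer without enzyme for full effect; nearly all actives have a fitted effect of over 40% in size; top concentration of the series not given in the record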
Target sequence (P25779 123-467 limits assumed): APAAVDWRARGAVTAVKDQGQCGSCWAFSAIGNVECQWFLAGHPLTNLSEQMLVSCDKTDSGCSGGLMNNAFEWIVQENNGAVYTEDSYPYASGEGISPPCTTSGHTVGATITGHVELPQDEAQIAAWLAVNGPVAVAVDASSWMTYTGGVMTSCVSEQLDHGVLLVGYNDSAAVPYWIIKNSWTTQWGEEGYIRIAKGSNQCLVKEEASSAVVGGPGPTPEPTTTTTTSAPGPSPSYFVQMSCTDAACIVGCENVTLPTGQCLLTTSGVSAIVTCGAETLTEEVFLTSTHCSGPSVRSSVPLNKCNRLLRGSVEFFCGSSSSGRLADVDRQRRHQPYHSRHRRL
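Purified cruzain at 1.5 nM, pre-incubated 15 min with compound at room temperature in 100 mM sodium acetate pH 5.5, 5 mM DTT, 0.00005% Triton X-100. Reaction started with 2 uM Z-FR-AMC; AMC fluorescence increase over 60 s gives rate.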
Lassa entry inh – Lassa virus entry inhibition | Lassa virus pseudotype entry inhibition, cell reporter; control for the full effect not named in the record | Potency, µM (highest dose often 37.9 µM), for inactives: top-dose activity change, negative = inhibition, most hits filed as inhibitors | 1.2% of 300,000 active | AID 540256; active means well fitted inhibition curve with a large enough effect; inconclusive means small, poorly fitted or top-dose-only effect, or effect the other way; inactive means flat fitted curve, though single readings scatter; tested in HEK293 cells; further: on the % scale 0 is the no-effect control and ±100 the full control effect; nearly all actives have a fitted effect of over 50% in size; luciferase read-out
NS1 inh – inhibitors of influenza NS1 protein function. S. cerevisiae slowed by influenza A NS1, growth recovery by OD600. Potency, µM (highest dose often 46.1 µM), for the others: at the top dose activity, positive = more growth. 0.4% of 270,000 active; active means well fitted rising curve with a large enough effect; inconclusive means small, poorly fitted or top-dose-only effect; inactive means no such curve, though single readings can be large or run the other way; further: nearly all actives have a fitted effect of over 50% in size
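Read-out: OD600 growth recovery of NS1-expressing budding yeast. Cells grown overnight at 30C in -URA glucose medium, washed, resuspended and diluted 1:100 in 2% galactose assay medium, pH 6.0. Same strain lacking NS1 served as positive control.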
StopGo reporter – FMDV 2A StopGo reporter, luciferase signal. human cells with a luciferase reporter of 2A StopGo recoding; control for the full effect not named in the record. 1.2% of 410,000 active. AID 1159524. Potency, µM (series often up to 57.9 µM), for inactives: at the highest dose signal change, negative = less light; active = well fitted falling curve with a large enough effect; inconclusive = small, poorly fitted or top-dose-only effect; inactive = no such curve, though single readings can be large or run the other way; tested in HEK293T cells; further: on the % scale 0 is the no-effect control and ±100 the full control effect; nearly all actives have a fitted effect of over 45% in size; luciferase light after 4 h
Cruzain inh Det – inhibitors of Trypanosoma cruzi cruzain with detergent. AID 1478. 0.43% of 200,000 active. purified cruzain, Z-FR-AMC fluorescence, 0.01% Triton. P25779. Potency, µM, inactives show max response, negative = inhibition, most hits filed as inhibitors;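 further: plate controls were neutral wells for no effect and buffer without enzyme for full effect; nearly all actives have a fitted effect of over 40% in size; top concentration of the series not given in the record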
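Read-out: AMC fluorescence (360 nm excitation, 450 nm emission), four reads over 2 min, first-to-third difference used. Conditions: cruzain 1.5 nM, Z-FR-AMC 2 uM, pH 5.5 acetate, 5 mM DTT, 0.01% Triton X-100.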
Marburg entry inh – blocks Marburg virus binding to or entry into cells. 1.8% of 300,000 active. Marburg virus pseudotyped entry inhibition, cell reporter; control for the full effect not named in the record; about a third of the inactives were read at about 46 µM. Potency, µM (highest dose often 37.8 µM), inactives show at the highest dose activity change, negative = inhibition, hits mostly inhibitors; active = well fitted inhibition curve with a large enough effect; inconclusive = small, poorly fitted or top-dose-only effect, or effect the other way; inactive = flat fitted curve, though single readings scatter; tested in HEK293 cells; about a fifth of its hits are not listed in these tables; further: on the % scale 0 is the no-effect control and ±100 the full control effect; luciferase read-out
Numbers without * were called inactive; ? = inconclusive; · = not tested or not shown; & = joins results of further samples; [ ] = remark or other dose. Unless noted, the call rests on the fitted dose curve; in most records, active means well fitted curve in the direction sought with a large enough effect; inconclusive means small, poorly fitted or top-dose-only effect, or another doubt; inactive means no such curve, though single readings can be large; an effect the other way counts as inactive or inconclusive. Potency means the concentration at half of the fitted maximal effect. No enrichment for hits. About 4.7% of those tested had a hit in this group.

SMILES	SARS PLP yeast	RE007 growth inh	Cruzain inh noDet	Lassa entry inh	NS1 inh	StopGo reporter	Cruzain inh Det	Marburg entry inh
O=C(/C=C/c1ccccc1)NC(NC(=S)Nc1ccc(C(=O)O)cc1)C(Cl)(Cl)Cl (configuration not stated)	14%	22%	?	-1%	23%	-1%	-23%	?
CCCCOc1cccc(C(=O)N(Cc2ccc(N(C)C)cc2)C2CCS(=O)(=O)C2)c1 (configuration not stated)	·	·	26%	-3%[46.1 µM]	·	-11%	-5.3%	?
Cc1ccc(S(=O)(=O)N2CCN(C(C)C(=O)NCC(C)c3ccccc3)CC2)cc1 (configuration not stated)	-1%	-14%	·	-9%	·	-28%	·	-25%
O=C(c1cccc(F)c1)N1C2C=CC(C2)C1(C(F)(F)F)C(F)(F)F (configuration not stated)	-3%	-13%	-12%	-3%	10%	-15%	5.2%	0%
O=C(NNc1nc2cc3c(cc2s1)OCCO3)c1ccccc1	1%	7%	·	-4%[46.1 µM]	3%	29%	·	?
COc1ccc(C(=O)Nc2ccc3[nH]c(-c4cccc(OC)c4)cc(=O)c3c2)cc1	14%	7%	?	?	27%	9%	-0.9%&-2.6%	?
O=C(NCC1CCCCC1)c1ccc(F)cc1Cl	2%	4%	·	?	-13%	10%	·	-1%
CSc1nc2ccccc2cc1/C=C(\C#N)c1cccc(Cl)c1	4%	8%	?	-22%	-5%	?	-2.6%	?
CC(=O)N1CCCc2ccc(NC(=O)c3ccc(OC(C)C)cc3)cc21	·	·	-8%	?	·	11µM*	-4.3%	·
CCCCN(C)C(=O)c1ccc(CS(=O)(=O)c2ccccc2C)o1	24%	-18%	3%	·	-7%	-23%	-3.2%	·
O=C(O[C@@H]1OC2COC(=O)c3cc(O)c(O)c(O)c3-c3c(cc(O)c(O)c3O)C(=O)O[C@@H]([C@H]1O)[C@@H]2O)c1cc(O)c(O)c(O)c1	13µM*	3%	4%	?	16%	-16%	-2.7%	?
O=C(CCCCCN1C(=O)c2ccccc2C1=O)Nc1ccc(S(=O)(=O)N2CCCCC2)cc1	-5%	6%	10%	-2%	10%	?	0.5%	-26%
Cc1cc(C(=O)N/N=C/c2cc(Br)ccc2OC(=O)c2ccccc2)n[nH]1	4%	3%	?	?	8%	-8%	-12%	10µM*
O=C(CSc1ccc(-c2ccco2)nn1)N1CCCCCC1	1%	-6%	·	1%	·	0%	·	?
O=C(Cc1cccs1)Nc1nnc(SCC(=O)N2CCCCC2)s1	1%	0%	-2%	-3%	-5%	-7%	-0.4%	-12%
CCOC(=O)c1c(-c2ccccc2)oc2ccc(O)c(CN3CCN(C)CC3)c12	-2%	1%	1%	?	-5%	-22%	-4.7%	?
Cc1ccc(Cl)cc1N1CCN(S(=O)(=O)c2c(C)nc3scc(C)n3c2=O)CC1	1%	6%	·	-22%[46.1 µM]	-18%	28%	·	?
O/N=C(\Cn1ccnc1)c1ccccc1	·	-3%	·	19%[46.1 µM]	·	28%	·	-6%[46.1 µM]
Cc1cccc(N2C(=O)N3[C@@H]4c5ccccc5OC[C@@H]4[C@@H](c4ccccc4)[C@]3(C)C2=O)c1	-19%	-2%	·	·	16%	?	·	·
O=C(NCCOCc1ccccc1)C(c1ccccc1)c1ccccc1	-1%	17%	·	-5%	-18%	-21%	·	-20%
O=C(NNC(=O)c1cc(-c2ccncc2)nc2ccccc12)c1ccccc1F	-1%	7%	·	16%	·	42%[activator]	·	?
CCc1cccc2sc(N(CCCN3CCOCC3)C(=O)CS(=O)(=O)c3ccccc3)nc12	1%	2%	·	3%[46.1 µM]	·	-4%	·	-11%
Nc1c(C(=O)N/N=C/c2ccc(Cl)cc2)cnn1-c1ccccc1	0%	14%	·	?	12%	16%	·	-19%
CCc1ccccc1NC(=O)CCOc1ccccc1	1%	-12%	-2%	-3%[46.1 µM]	-1%	-16%&-8%	-0.4%	·
COc1ccccc1OCC(=O)N1CCN(S(=O)(=O)c2ccc(Cl)cc2)CC1	1%	-15%	·	0%[46.1 µM]	·	7%	·	16%
COc1ccc(-c2nnc3sc(-c4ccco4)nn23)cc1OC	-3%	-18%	-4%	2%	-3%	0%	4.6%	13%
COc1cc(CNCCCO)ccc1OCC(=O)NC(C)(C)C	0%	-15%	·	1%	-9%	0%	·	-2%[46.1 µM]
CCC(NC(=O)Cc1c(C)c2ccc(OC)c(C)c2oc1=O)C(=O)NC(Cc1ccc(Cl)cc1)C(=O)O (configuration not stated)	-9%	5%	·	·	16%	-13%	·	·
CCN(CC)CCCN(C(C)=O)c1nc(-c2cc(OC)ccc2OC)cs1	2%	-21%	-3%	17%	-5%	33%	4.4%	?
COc1ccc(CCNC(=O)COC(=O)COc2ccc(C#N)cc2)cc1	5%	-1%	·	8%[46.1 µM]	·	-3%	·	3%[46.1 µM]
O=C(c1csc2ccccc12)N1CCN(c2ccc(Cl)c(Cl)c2)CC1	-6%	10%	-4%	-4%	-1%	-23%	-7.9%	?
Cc1cc(F)ccc1NC(=O)C1CCCN(S(=O)(=O)c2ccc3c(c2)CCCC(=O)N3)C1 (configuration not stated)	·	·	2%	5%[46.1 µM]	·	-30%	-0.3%	·
Cc1nc(C)n(CC(C)C(=O)N2CCN(S(=O)(=O)c3ccccc3)CC2)n1 (configuration not stated)	29%	79%	·	7%	-4%	-4%	·	12%[46.1 µM]
CCc1ccc(-c2cn(C3CCCCC3)c(=S)[nH]2)cc1	18%	?	·	3%	·	0%	·	1%[46.1 µM]
CCNC(=O)C1CCN(S(=O)(=O)c2ccc(F)cc2)CC1	?	2%	-5%	7%	-1%	-16%	4.4%	-16%
O=C(c1ccccc1S(=O)(=O)NCc1ccccc1)N1CCCCC1	-2%	14%	-3%	·	-6%	86%[activator]	1.4%	·
C[C@]12C=CC(=O)C=C1CC[C@@H]1C2CC[C@]2(C)OC(=O)CCC12 (some centres not stated)	4%	67%	0%	21%	-2%	-9%	-1.9%	6%[46.1 µM]
CSCCC(NS(=O)(=O)c1ccc(Cl)cc1)C(=O)OCC(=O)N1CCOCC1 (configuration not stated)	-2%	12%	5%	16%	0%	8%	1.7%	0%&0%
Cc1ccc(NC(=O)Cn2c(=O)oc3cc(S(=O)(=O)N4CCCCCC4)ccc32)cc1Cl	·	·	-8%	?	·	?	0.4%	·
Cc1ccccc1-c1noc(-c2cc(C(C)C)[nH]n2)n1	·	·	1%	16%[46.1 µM]	·	30%	-8.2%	·
O=S1(=O)N=C(N(CCO)/N=C/c2ccc(Cl)cc2)c2ccccc21	1%	5%	·	·	5%	-9%	·	·
C/C=C(\C)CN1CCCC(CO)(Cc2ccccc2)C1 (configuration not stated)	0%	-5%	·	13%[46.1 µM]	-2%	-8%	·	-10%[46.1 µM]
CC1CCC2=NN(C(=O)c3ccco3)C(O)(C(F)(F)F)C2C1 (configuration not stated)	-2%	-5%	·	-13%	2%	18%	·	?
O=C(c1ccc(S(=O)(=O)c2cccc(Cl)c2)c([N+](=O)[O-])c1)N1CCN(Cc2ccccc2)CC1	6%	7%	6%	?	-9%	11µM*	-2.9%	?
C#CCOC(=O)C1=CCCN(C)C1	·	4%[18.4 µM]	5%&6%	?	-4%	-10%&-3%&-12%	2.7%&1.5%	?
O=C(NCCN=C1NS(=O)(=O)c2ccccc21)c1ccccc1	2%	-9%	·	5%[46.1 µM]	-6%	16%	·	9%[46.1 µM]
COc1ccc(-c2csc(NC(=O)C3CSC4(C)CCC(=O)N34)n2)c(OC)c1 (configuration not stated)	1%	6%	·	?	·	-2%	·	-26%
COc1ccc(C2CC(c3ccccc3)=NN2C(=O)c2cccs2)cc1 (configuration not stated)	-7%	5%	?	-1%	21%	20%	-5.6%	?
c1ccc2c(CCNc3ncnc4nc[nH]c34)cccc2c1	-1%	7%	9%	1%	-6%	32µM*	-1.7%	?
COC(=O)c1ccc2ccccc2c1OC1OC(CO)C(O)C(O)C1NC(C)=O (configuration not stated)	0%	5%	·	·	10%	13%	·	·
Cc1ccc(NC(=O)CN(C)C(=O)Cc2c(Cl)cccc2Cl)cc1	-2%	7%	·	-19%	4%	-11%	·	-10%[46.1 µM]
COc1ccc(NS(=O)(=O)c2cc(N)ccc2N2CCCC2)cc1	0%	-7%	·	-27%	·	-6%	·	?
O=C(CNC(=O)Cc1ccccc1)NCC(=O)OCC(=O)c1ccc(Cl)cc1	-11%	22%	-12%	-2%	-3%	-15%	-0.5%	?
Cc1ccc2nsnc2c1NC(=O)Cc1ccc(Cl)cc1	2%	9%	·	2%[46.1 µM]	-2%	-19%	·	15%[46.1 µM]
O=C(NC1CCCCCC1)C1CCCN(S(=O)(=O)c2cccs2)C1 (configuration not stated)	3%	-2%	-11%	?	-12%	0%	1.9%	-10%
Cc1ccc2c(cnn2C(=O)CCCC(=O)NCc2cccc(F)c2)c1	0%	-13%	·	·	0%	0%	·	·
Cc1ccccc1Nc1nnc(C)c(=O)n1N	10%	-11%	-2%	6%	1.8µM*	·	3.5%	10%
Cc1ccc(S(=O)(=O)NCc2ccccc2)cc1C(=O)N(C)Cc1ccccc1F	-2%	-21%	·	0%	-9%	-4%	·	-1%
Cc1cc(N2CCCC2=O)ccc1S(=O)(=O)N1CCOCC1	0%	15%	·	-11%	3%	-7%	·	7%[46.1 µM]
CCOC(=O)N1CCN(CCC(=O)Nc2ccc(OC(F)(F)F)cc2)CC1	19%	-11%	5%	?	-7%	?	-1.3%	13%
O=C(Cc1ncc(C(F)(F)F)cc1Cl)N1CCN(c2ccc(F)cc2)CC1	-5%	3%	4%	21%	2%	-12%	-3.6%	?
CCc1nc2ccccc2c(C(=O)OCC(=O)Nc2cccc(S(=O)(=O)N3CCOCC3)c2)c1C	2%	7%	29%	?	13%	20µM*	-7.8%	4.6µM*

Bioassay records (PubChem)
